# From PubChem
# 2A Renilla: lowers the Renilla signal of an FMDV 2A StopGo reporter. HEK cells with a luciferase reporter of 2A StopGo recoding. Potency, µM (doses to about 57.5 µM), for inactives: at the highest dose signal change, negative = less light. actives 0.32% (n = 120,000); active means well fitted falling curve with a large enough effect; inconclusive means small, poorly fitted or top-dose-only effect; inactive means no such curve, though single readings can be large or run the other way; also: nearly all actives have a fitted effect of over 55% in size; overnight with compound
# StopGo FLuc: lowers the firefly signal of an FMDV 2A StopGo reporter; Potency, µM (titrated, usually from 57.5 µM), for inactives: at the highest dose signal change, negative = less light; HEK cells with a luciferase reporter of 2A StopGo recoding; actives 0.23% (n = 120,000); active = well fitted falling curve with a large enough effect; inconclusive = small, poorly fitted or top-dose-only effect; inactive = no such curve, though single readings can be large or run the other way; also: nearly all actives have a fitted effect of over 60% in size; overnight with compound
# An asterisk follows results filed as active; ? = inconclusive; [ ] = another dose, or the depositor's remark. % is scaled to controls: 0 for no effect and ±100 for the full control effect; potency is read from the fitted curve at half-maximal effect.
SMILES,2A Renilla,StopGo FLuc
COc1cccc(-n2c(-c3ccc(C)cc3)cc3c2CC(C)(C)CC3=O)c1,0%,-15%
Cc1cc(C)cc(C(=O)Nc2ccc(Cl)cc2C(F)(F)F)c1,24%[1.06 µM],0%
CC(C)(C)OC(=O)N1Cc2ccccc2C[C@H]1C(=O)NCC(=O)NCC1CCCO1 (stereo not given in full),2%,6%
N/C(=N/O)c1cccc(CN2CCOCC2)c1,-4%,4%
COc1ccc(/C=C\c2onc(C)c2S(=O)(=O)N2CCC(C(=O)Nc3ccc(F)cc3F)CC2)cc1,28µM*,32µM*
CC(C)(C)NC(=O)CSc1nc2c(c(-c3cccs3)c1C#N)CCCC2,-2%,-11%
c1ccc(-n2nnnc2SCc2nc3ccccc3[nH]2)cc1,-17%,5%
Cc1ccc(C(=O)C(C)Sc2ccc3c(c2)OCCO3)cc1 (stereo not given),19%,52%[activator]
C#CCCCN([C@@H](CC(C)C)C(=O)OC)S(=O)(=O)c1ccccc1Br,44%[activator],-2%
NS(=O)(=O)c1ccc(NC(=O)COc2ccc(S(=O)(=O)NC3CCCCC3)cc2)cc1,238%[activator],-14%
CSc1nc(Nc2ccc(C)cc2C)cc(-c2ccccc2)n1,9%,-2%
CCOC(=O)c1ccccc1NC(=O)CN1CCCN(Cc2cccc(OC)c2)S1(=O)=O,43%[activator],-4%
Cc1ccc(Cn2c(CCCNC(=O)c3ccco3)nc3ccccc32)cc1,-4%,-14%
CCNc1c(NC(=O)Nc2ccc(F)cc2F)c(=O)oc2ccccc12,-2%,4%
Cc1ccc(-c2[nH]ncc2C=O)cc1C,-10%[1.06 µM],32%[activator]

# 6 entries drawn at random from those above, as already listed:
SMILES,2A Renilla,StopGo FLuc
CC(C)(C)NC(=O)CSc1nc2c(c(-c3cccs3)c1C#N)CCCC2,-2%,-11%
C#CCCCN([C@@H](CC(C)C)C(=O)OC)S(=O)(=O)c1ccccc1Br,44%[activator],-2%
Cc1cc(C)cc(C(=O)Nc2ccc(Cl)cc2C(F)(F)F)c1,24%[1.06 µM],0%
N/C(=N/O)c1cccc(CN2CCOCC2)c1,-4%,4%
NS(=O)(=O)c1ccc(NC(=O)COc2ccc(S(=O)(=O)NC3CCCCC3)cc2)cc1,238%[activator],-14%
Cc1ccc(C(=O)C(C)Sc2ccc3c(c2)OCCO3)cc1 (stereo not given),19%,52%[activator]

# Next records follow:
SMILES,2A Renilla,StopGo FLuc
Cc1cc(Sc2ccc(NC(=O)c3cccc(Cl)c3)cc2)c2ccccc2n1,?,-9%
CC1CCN(c2nc3c(c(=O)n(Cc4ccccc4)c(=O)n3C)n2C)CC1,-19%,-6%
CCC(=O)C1=C(c2ccc(Cl)c(Cl)c2)N(C(=O)CC)n2cnnc2S1,-10%,5%
Cc1ccc(C(C)C)c(OCC(=O)Nc2ccc3oc(C)nc3c2)c1,123%[activator],0%
CC(C(=O)N(C)Cc1ccccc1)N(c1ccccc1)S(C)(=O)=O (stereo not given),-1%,-6%
C(=N\N=C1c2ccccc2-c2ccccc21)/c1c2ccccc2cc2ccccc12,2%,32%[activator]
CCN1CCN(C(c2ccccc2)c2c(O)cc(C)n(CCOC)c2=O)CC1 (stereo not given),-5%,-9%
NC(=O)c1cc2ccccc2nc1N,-9%,19%
Cc1ccc(CNC(=O)CC(C)S(=O)(=O)c2cc3c(cc2C)NC(=O)CO3)cc1 (stereo not given),-2%,-6%
Cc1ccc2oc3c(c(=O)c2c1)C(c1cccc(O)c1)N(Cc1ccccc1Cl)C3=O (stereo not given),10%,21%
C#CCN1C(=O)S/C(=C/c2cn(CC(=O)O)c3ccccc23)C1=O,-8%,-1%
COc1ccc(-c2c(C(F)(F)F)oc3cc(OS(C)(=O)=O)ccc3c2=O)cc1OC,?,3.5µM*
Cc1ccc(-c2cc(C(=O)N3CCOCC3)c3ccccc3n2)s1,54%[activator],0%
O=C(Cn1ncn2nc(-c3cccs3)cc2c1=O)N1CCCCCC1,12%,42%[activator]
Cc1ccsc1CN(Cc1ccco1)C(=O)c1ccc(Cl)cc1,168%[activator],-23%

# Full records from above:
# Record of `C#CCCCN([C@@H](CC(C)C)C(=O)OC)S(=O)(=O)c1ccccc1Br` → 2A Renilla = 44%[activator]; StopGo FLuc = -2%
# Record of `Cc1cc(Sc2ccc(NC(=O)c3cccc(Cl)c3)cc2)c2ccccc2n1` → 2A Renilla = ?; StopGo FLuc = -9%

# Next part
SMILES,2A Renilla,StopGo FLuc
CC(OC(=O)c1cc(=O)c2ccccc2o1)C(=O)c1ccccc1 (stereo not given),-1%,2%
O=C(Nc1c(-c2ccc(F)cc2)nc2ccccn12)c1ccccc1F,-1%,-1%
CCOC(=O)c1ccc(NC(=O)CN2C(=O)c3cccnc3Oc3ccc(Cl)cc32)cc1,90%[activator],114%[activator]
Oc1ccc(Cl)cc1C=Nc1ccc(Cl)cc1C(F)(F)F,-10%,10%
O=C(Nc1ccccc1F)c1cccc2c(Cl)cccc12,-3%,0%
CC(=O)Nc1ccc(C)cc1S(=O)(=O)N1CCCC1c1ccco1 (stereo not given),71%[activator],-5%
N#Cc1cccc(NC(=O)NCCNc2ncccc2C(F)(F)F)c1,70%[activator],13%
O=C(Cc1cccs1)NC1CCSC1=O (stereo not given),0%,4%
COC(=O)CNC(=O)C1CCCN(C(=O)c2cc3ccccc3[nH]2)C1 (stereo not given),-18%,57%[activator]
Cc1ccc(-c2noc(Cn3cnc(C#N)n3)n2)cc1,-11%,7%
CN(C)CCCNC(=O)c1nc(CC(=O)Nc2cccc3ncccc23)no1,-8%,2%
O=C1CC(=O)CC(c2cccc(Cl)c2)C1,-6%,-7%
CN(C(N)=NC(=O)/C=C/c1ccccc1)C(C#Cc1ccccc1)Cc1ccccc1 (stereo not given),38%[activator],-5%
Cc1ccc(CNC(=O)C2CCN(S(=O)(=O)c3c(C)noc3/C=C/c3c(C)cc(C)cc3C)CC2)cc1,-4%,-18%
CCc1ccc(-c2csc(Nc3ccc(C(=O)O)c(O)c3)n2)cc1,-2%,80%[activator]
Cc1cc(C(=O)OCC(=O)N2CCOCC2)c2ccccc2n1,-12%,-3%
COc1cc2c(cc1OC)C(c1ccc(Cl)cc1)N(c1cccc(C#N)c1)C(=O)C2 (stereo not given),-3%,-17%
O=C(Nc1ccncc1)c1ccc(COc2ccccc2Cl)cc1,?,?
CSc1ccc(/C=C/C(=O)c2ccc(N(C)C)cc2)cc1,3%,54%[activator]
CC1(C)Cc2ccccc2C(C2=C(O)CCCC2=O)=N1,22%,40%[activator]
CC(=O)N1CCN(C(=O)c2cc(-c3ccco3)nc3ccccc23)CC1,7%,37%[activator]
CCOC(=O)c1cnc2c(ccc3ccccc32)c1Nc1ccc(C(C)=O)cc1,-11%,-10%
CC1CCN(S(=O)(=O)NCc2ccccc2Cn2cccn2)CC1,79%[activator],-12%
CCn1cc(C(=O)NCCOC)c(=O)c2cc(S(=O)(=O)N3CCOCC3)ccc21,-12%,-28%
Cc1cc(C)cc(NC(=O)CSc2cc(C)[nH]c(=O)n2)c1,-11%,-4%
COC(=O)c1cc(F)ccc1NC(=O)N1CCc2[nH]cnc2C1c1ccc(Cl)cc1 (stereo not given),3%,2%
O=C(CCNC(=O)c1cccs1)Nc1cccnc1N1CCCC1,-13%,-7%
COC(=O)COc1ccc2c(=O)c(Oc3cccc(C)c3)c(C(F)(F)F)oc2c1,-5%,-12%
FC(F)(F)c1cccc(NC(=S)NC2CC2)c1,43%[activator],0%
COc1ccc(CNC(=O)C2CCN(c3nc4ccccc4nc3OC)CC2)cc1,4%,5%
Cn1nnnc1SCCCNCc1ccccc1OCc1ccccc1F,9%,12%
O=S(CCO)CCO,8%,13%
c1csc(-c2nc(NC3CC3)c3ccccc3n2)c1,0%,19%
CCOC(=O)c1ccc(NC(=O)CCn2cnnn2)cc1,-2%,17%
COc1ccc(N(C)C(=O)CCc2c[nH]c3ccccc23)cc1OC,-6%,-1%
CN(Cc1ccco1)C(=O)c1nn(Cc2ccccc2)c(=O)c2ccccc12,143%[activator],60%[activator]
Cn1c(CSc2ccccc2Cl)nc2c1c(=O)[nH]c(=O)n2C,1%,6%
O=C(O)c1cc(I)ccc1Br,19%,0%
O=C(c1ccccc1Br)N(Cc1ccco1)C1CCS(=O)(=O)C1 (stereo not given),6%,-13%
CCOc1ccc(-c2nnc(SCC(=O)c3ccc(F)cc3)n2-c2ccccc2)cc1,-12%,0%
O=C(NCc1ccccc1)N1CCN(C(=O)c2ccccc2)CC1,-9%,11%
COc1ccc(N(CC(=O)Nc2ccc(C)c(C)c2)S(=O)(=O)c2c(C)nn(C)c2C)cc1,-8%,-4%
O=C(N/N=C/c1ccc(Cl)cc1Cl)c1cccs1,22%,130%[activator]
Cc1csc2nc(COc3ccc(NC(=O)COc4ccccc4)cc3)cc(=O)n12,-12%,-9%
COc1ccc(-c2nc(CSCC(=O)NCCc3ccc(OC)c(OC)c3)c(C)o2)cc1,?,?

# Grouped by structure, the compounds so far with two or more sulfur atoms (3)
SMILES,2A Renilla,StopGo FLuc
CC(C)(C)NC(=O)CSc1nc2c(c(-c3cccs3)c1C#N)CCCC2,-2%,-11%
NS(=O)(=O)c1ccc(NC(=O)COc2ccc(S(=O)(=O)NC3CCCCC3)cc2)cc1,238%[activator],-14%
O=C(Cc1cccs1)NC1CCSC1=O (stereo not given),0%,4%

# The main list resumes; the 3 compounds before the break are reprinted first.
SMILES,2A Renilla,StopGo FLuc
O=C(N/N=C/c1ccc(Cl)cc1Cl)c1cccs1,22%,130%[activator]
Cc1csc2nc(COc3ccc(NC(=O)COc4ccccc4)cc3)cc(=O)n12,-12%,-9%
COc1ccc(-c2nc(CSCC(=O)NCCc3ccc(OC)c(OC)c3)c(C)o2)cc1,?,?
Cc1sc(-n2cccc2)c(C(C)NC(=O)Nc2cccc(C(F)(F)F)c2)c1C (stereo not given),12%,-18%
COc1ccc(-n2nnc(C(=O)NCc3ccccc3)c2N)cc1OC,10%,14%
CC1(C)CC(=O)C2=C(C1)NC(=O)CC2c1ccc(OCc2ccccc2)cc1 (stereo not given),-14%,-12%
Cc1ccc(C(=O)c2cn(Cc3ccccc3F)c3cc4c(cc3c2=O)OCO4)cc1,-8%,-4%
C=CCn1c(N2CCC(C)CC2)nc2c1c(=O)n(C)c(=O)n2C,3%,-3%
COC(=O)C(C(=O)OC)C(c1ccc(Cl)cc1)C(C)C(=O)c1ccc(C)cc1 (stereo not given),7%,2%
COc1ccccc1NC(=O)C(=O)c1cc(C)n(-c2ccccc2F)c1C,110%[activator],102%[activator]
O=C(N/N=C/c1c(Cl)cccc1Cl)c1cccs1,57%[activator],0%
COc1cccc(-n2c(=O)c3cc(OC)c(OC)cc3n(CC(=O)Nc3ccc(F)cc3)c2=O)c1,-14%,-11%
C/C(=N\O)c1cc2cc(Br)cc(Br)c2oc1=O,17%,0%
COc1ccc(CCNC(=O)c2csc(NC(C)C)n2)cc1,-11%,-4%
Cc1c(C(=O)Nc2c(C)n(C)n(-c3ccccc3)c2=O)oc2c(Cl)cccc12,1%,-6%
Cc1nc2ncnn2c(N(C)C)c1Cc1ccccc1,-6%,6%

# An unsorted share of the library. Share with any hit: about 0.53%.
